Screening data: PubChem, Broad Institute
Tg IFNy HTS – T. gondii growth inhibition with IFN-gamma, primary screen, cell-based; 69,000 tested, 3.8% active; activity change, negative = inhibition, %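 (about 20 µM by stock and volumes)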; Toxoplasma gondii growth in IFN-gamma-treated host cells; stronger effect = lower value; reference of the scale not given here; AID 1259416, 2018;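 active = below -70%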;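 also: host cells are HeLa cells infected with Toxoplasma gondii; parasite growth read as luciferase light; one replicate is shown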
* = called active by the depositor; i = inactive; & = joins results of further samples.

The opening two entries, to show the layout:
SMILES	Tg IFNy HTS
CCOc1ccc(CCNC(=O)C2=C(C)C(=O)OC23CCN(S(C)(=O)=O)CC3)cc1	44
CCc1nccc(-c2nccn2-c2ccc(OC)nc2OC)n1	-45

This part in full, previewed entries included:
SMILES	Tg IFNy HTS
CCOc1ccc(CCNC(=O)C2=C(C)C(=O)OC23CCN(S(C)(=O)=O)CC3)cc1	44
CCc1nccc(-c2nccn2-c2ccc(OC)nc2OC)n1	-45
Cc1onc(-c2ccccc2)c1CNC(=O)C1CCN(c2nccc(C(F)(F)F)n2)CC1	-66
COc1ccc(-n2c(=O)c(C(=O)Nc3ccc(C)cc3)c(O)c3cccnc32)cc1	41
CCCS(=O)(=O)N1CCc2ncc(Cn3cccn3)n2CC1	-13
CC(C)C#Cc1ccc([C@H]2[C@@H](CO)N3C(=O)CN(C(=O)NC4CCCC4)C[C@@H]23)cc1	-10
CC(C)N(C)Cc1nnc2n1CCN(Cc1ccccn1)C2	0
C/C=C(/C(=C/C)c1ccc(O)cc1)c1ccc(O)cc1	29&1&7
CS(=O)(=O)n1nc(-c2cccnc2)nc1NCc1ccc(Cl)cc1	3
Cn1cc(C(=O)NCc2csc(N3CCCC3)n2)ccc1=O	38
COc1cccc(F)c1C(=O)N1CCC(Cc2cccc(C(=O)O)c2)CC1	0
Cc1noc(C)c1NC(=O)N(C)C[C@H]1OCc2cnnn2CCCC(=O)N([C@H](C)CO)C[C@@H]1C	29
C[C@@H]1CN([C@@H](C)CO)C(=O)c2ccccc2-c2ccccc2CO[C@@H]1CN(C)Cc1ccccc1C(F)(F)F	-13
COc1ccccc1-c1cn(CC[C@@H]2CC[C@H](NC(=O)C3CCCCC3)[C@H](CO)O2)nn1	-18
Cc1ccc(-c2nc(CSc3nc4c(c(=O)[nH]3)CN(Cc3ccccc3)CC4)c(C)o2)cc1	-48
Cc1ccc(-c2nc(Cn3ccn4nc(-c5cccs5)cc4c3=O)c(C)o2)cc1	104
CCn1ncnc1C1CC(=O)Nc2cc3c(cc21)CCc1ccccc1N3 (stereo not drawn)	-6
CCC1CN(Cc2ccc(Cn3cccn3)cc2)CCN1C(C)C (stereo not drawn)	-7
O=C(NCc1ccc(Cl)cc1)c1c(O)c2cccnc2[nH]c1=O	-42
C[C@@H]1CCCCO[C@H](CN(C)S(=O)(=O)c2cn(C)cn2)[C@@H](C)CN([C@@H](C)CO)C(=O)c2cc(N(C)C)ccc2O1	418
O=C(CC1COCCN1)NCCC(c1ccccc1)c1ccccc1 (stereo not drawn)	-9
CCOC(=O)c1cc(C(N)=S)c(C)nc1C(F)(F)F	-79*
CC(COc1ccccc1)NC1CCN(S(=O)(=O)c2ccccc2)CC1 (stereo not drawn)	7
Clc1ccc(OCc2noc(-c3ccccc3)n2)c(Cl)c1	401
CC(C)Cc1cc(CNC(=O)c2c(O)cccc2O)on1	10
O=C(COC(=O)c1ccco1)NC1CCCCC1	-14
Cc1cc(C)n2nc(NCc3c(Cl)cccc3Cl)nc2n1	14
Cc1oc(-c2ccccc2)nc1CSc1nc2c(=O)[nH]cnc2n1CC1CCCO1 (stereo not drawn)	-47
CC(C)N1CCC(CNC(=O)CC2=CCCCC2)C1 (stereo not drawn)	-15
CO[C@@H](CN(C)Cc1cc(F)ccc1F)[C@@H](C)CN([C@@H](C)CO)S(=O)(=O)c1ccc(C)cc1	-50
O=C(O)CC1CC2(CCN(C(=O)Cc3cccnc3)CC2)Oc2ccccc21 (stereo not drawn)	5
CN(C)C(=O)N1CCC2(CC1)CC1(CCN(C(=O)Nc3ccccc3)CC1)N(C)C2=O	-3
CC(C)OCC1CCC2C1OCCN2C(=O)C1CCCO1 (stereo not drawn)	1
Cc1ccc(CN(Cc2ccncc2)Cc2cn(CCN(C)C)c3ccccc23)cc1	87
Cn1c(CC2CCNCC2)nnc1SCCN1CCOCC1	2
O=C(NCCc1ccncc1)c1cccc2[nH]cc(CN3CCSCC3)c12	15
Clc1cccc(-c2nnc(-c3nc(N4CCOCC4)c4ccccc4n3)o2)c1	11
COc1ccccc1CNc1nc(-c2nnc(-c3ccccc3)o2)nc2ccccc12	-96*
COc1ccc(-c2nc(Cn3nnc(-c4nc(-c5ccc(SC)cc5)no4)c3C)c(C)o2)cc1	16
CC(C)n1cnc2c1C(C(=O)C1CCC(N(C)C)C1)N(Cc1ccccc1)CC2 (stereo not drawn)	2
CCN(CC)S(=O)(=O)N1CCN(S(=O)(=O)N2CCCC(C)C2)CC1 (stereo not drawn)	11
Cc1ccc(C(C(=O)NC2CCCCC2)N(C(=O)c2ccco2)c2ccc(C)c(C)c2)o1 (stereo not drawn)	96
Cc1ccc(C2c3[nH]c4ccccc4c3CCN2C(=O)c2cc3ccccc3[nH]2)cc1 (stereo not drawn)	-79*
O=C(O)C1=CCNCC1	14
O=C(c1ccc(-n2cnnc2)cc1)N1CCC(c2ccccc2Cl)C1 (stereo not drawn)	-3
CCN1CC2(CCN(c3ncccn3)CC2)COc2ccccc2S1(=O)=O	58
O=C1NC(=O)/C(=C/c2ccc3c(c2)OC(F)(F)O3)S1	181
c1ccc(CN2CCc3nc(N4CCCC4)nc(N4CCn5cnnc5C4)c3C2)cc1	-34
Cc1cc(C)n(Cc2nc(-c3ccc(NC(=O)/C=C/c4ccccc4)cc3)oc2C)n1	-43
Cc1ccc2c(c1)cc(S(=O)(=O)c1ccccc1)c(=O)n2CC(=O)NCC1CCCO1 (stereo not drawn)	9
CC1CCCC(N2CCN(Cc3ccco3)CC2)C1 (stereo not drawn)	9
Cc1cc(C)cc(C(=O)N2CCN(S(=O)(=O)c3cc4c5c(c3)CCN5C(=O)CC4)CC2)c1	22
Cc1cccc(Nc2nc(C(=O)Nc3cccc(Cl)c3C)nc3ccccc23)c1	-75*
N#Cc1cnc(C2COc3ccccc3O2)nc1N (stereo not drawn)	347
CN1CC[C@@]2(CN(S(=O)(=O)C3CC3)C[C@H]2c2ccccc2)C1=O	-5
Cc1ccc(CNC(=O)Cn2ncc3c(N4CCCCCC4)ncnc32)cc1	-44
Cc1cc2cccc(C(=O)N3CCOC4(CNCCOC4)C3)c2o1 (stereo not drawn)	-3
CCN1CCC2(CC1)OC(=O)C(C)=C2C(=O)Nc1cc(OC)ccc1OC	484
N#Cc1cccc(CN2CCC3C2CC(=O)N3Cc2ccncc2)c1 (stereo not drawn)	42
CCCS(=O)(=O)N1CCC2(CC1)CCn1c(-c3ccc(C(N)=O)cc3)cnc12	-46

Rewritten as labelled records: entries from further up
N#Cc1cccc(CN2CCC3C2CC(=O)N3Cc2ccncc2)c1 (stereo not drawn)
  Tg IFNy HTS = 42

N#Cc1cnc(C2COc3ccccc3O2)nc1N (stereo not drawn)
  Tg IFNy HTS = 347

Additional results:
SMILES	Tg IFNy HTS
COc1cccc(NC(=O)C(=O)NCCc2csc(-c3ccc(C(F)(F)F)cc3)n2)c1	i
O=S(=O)(c1ccccc1)N1CCC2(CCCN(c3ccccn3)C2)C1 (stereo not drawn)	18
C[C@@H](C(=O)N1CCc2c(ncnc2N(C)C)C1)n1cnnn1	7
Cc1nn(C)cc1C(=O)N1CCCCC1c1ncccc1C(=O)NCc1ccccc1 (stereo not drawn)	11
CN1C(=O)c2cc(NC(=O)Cc3cccs3)ccc2OC[C@H]2O[C@@H](CC(=O)NCc3ccc(-c4ccccc4)cc3)CC[C@H]21	-45
COc1ccccc1CN1[C@@H]2CN(C(=O)c3cccnc3)c3ccccc3[C@@H]2[C@@H]1CO	9
CCOC(=O)c1nc(NCCc2c[nH]c3ccc(C)cc23)c2c(-c3ccc(Cl)cc3)noc2n1	-59
CC(C)C#Cc1ccc([C@H]2[C@@H](C#N)N(C(=O)c3cccc(F)c3)[C@H]2CO)cc1	-63
CCN1CCCC1CNC(=O)C1CCN(Cc2cc3ccccc3n2Cc2ccccc2C)CC1 (stereo not drawn)	-34
COCC(=O)N1CC[C@H]2[C@H]1CCC(=O)N2c1ccccc1	-10
CSCCCN(C)Cc1cc(-c2ccccc2)no1	-10
Cc1nccc(-c2cccc(NS(=O)(=O)c3ccccc3C(F)(F)F)c2)n1	-12
CC(C)Cc1noc(C(C)NC(=O)c2cnn3ccccc23)n1 (stereo not drawn)	-4
COc1ccc(S(=O)(=O)Nc2ccc3c(c2)C(=O)N([C@@H](C)CO)C[C@@H](C)[C@@H](CN(C)C(=O)Nc2c(C)noc2C)OCCCC[C@H](C)O3)cc1	-78*
CN(Cc1ccsc1)Cc1cc2n(n1)CCNC2	1
CNC(=O)c1cc(S(=O)(=O)N[C@@H]2C[C@@H](CO)N(C)C2)cs1	3
O=S1(=O)C=C2C(C1)SC(=S)N2C1CCS(=O)(=O)C1 (stereo not drawn)	-9
Cc1cccc(OCC(=O)NCCc2sc(-c3ccc(Cl)cc3)nc2C)c1	58
Cc1ccc(C(=O)N2CCCC(c3[nH]ncc3-c3ccc(F)cc3)C2)c(=O)n1C (stereo not drawn)	18
CCOC(=O)N1CCN(Cc2cn3ccccc3n2)CC1	-2
COc1cccc(-n2c(=O)c(C(=O)Nc3cccc(F)c3)c(O)c3cccnc32)c1	51
O=C(Cn1c(=O)n(S(=O)(=O)c2ccccc2)c2ccccc21)N1CCCCC1	33
CN(C)[C@@H]1CCN(S(C)(=O)=O)[C@H]1Cc1cccnc1	105
O=C1NCCN(C(=O)c2ccc(Cl)cc2)C1Cc1ccccc1 (stereo not drawn)	-8
CCCc1cc(=O)[nH]c(SCC(=O)Nc2cccc3ccccc23)n1	-60
COc1ccccc1OCc1cc(C(=O)N(C)C2CCOCC2)n[nH]1	0
CC1Oc2ccc(NC(=O)C(C)(C)NS(=O)(=O)c3cccs3)cc2NC1=O (stereo not drawn)	-2
CC(C)(C)N(CC#Cc1ccccc1)Cc1ncccc1C(=O)O	-1
Cc1[nH]cnc1-c1nccn1Cc1ccco1	6
O=c1[nH]nc(CCc2ccccc2)n1Cc1ccccc1F	-9
Cc1ccc2c(c1C)-n1cccc1C1(CCN(S(=O)(=O)c3ccc(Cl)c(Cl)c3)CC1)N2	3
CCOCC1CN(Cc2nccs2)Cc2ncn(C)c21 (stereo not drawn)	-34
O=C(NC[C@H]1N[C@@H](CO)[C@H]1c1ccc(-c2ccccc2F)cc1)c1ccccn1	6
Cc1ccc(-c2nc(CCNC(=O)C(=O)Nc3cccc(Cl)c3)cs2)cc1	73
Cc1ccc(C(=O)N2CCC3(CC2)CC(=O)N(Cc2ccncc2)C3)o1	-38
OC1(C(F)(F)F)CC(c2ccc3c(c2)Nc2ccccc2S3)=NN1 (stereo not drawn)	-49

6 entries picked at random from the list so far, as already listed:
SMILES	Tg IFNy HTS
Clc1cccc(-c2nnc(-c3nc(N4CCOCC4)c4ccccc4n3)o2)c1	11
O=C1NCCN(C(=O)c2ccc(Cl)cc2)C1Cc1ccccc1 (stereo not drawn)	-8
Cc1ccc(CN(Cc2ccncc2)Cc2cn(CCN(C)C)c3ccccc23)cc1	87
O=S1(=O)C=C2C(C1)SC(=S)N2C1CCS(=O)(=O)C1 (stereo not drawn)	-9
Cc1ccc(C(=O)N2CCC3(CC2)CC(=O)N(Cc2ccncc2)C3)o1	-38
Clc1ccc(OCc2noc(-c3ccccc3)n2)c(Cl)c1	401

More compounds follow:
SMILES	Tg IFNy HTS
Cc1ccccc1CN1CC2CN(C(=O)Nc3ccccc3)CC21 (stereo not drawn)	-53
CSCc1ccc(C(=O)N(C)CCc2nc3ccc(F)cc3[nH]2)o1	-25
CCCNC(=O)N1[C@H](CO)[C@@H](c2ccccc2-c2ccc(OC)cc2)[C@@H]1C#N	16
O=C(Cn1c(=O)cc(C(=O)N2CCCCC2)c2ccccc21)Nc1ccccc1C(F)(F)F	9
C[C@@H]1CCCCO[C@@H](CN(C)CC2CCCCC2)[C@H](C)CN([C@@H](C)CO)C(=O)c2cc(NS(C)(=O)=O)ccc2O1	-48
Cn1nc2n(c1=O)CC(C(=O)N1C[C@@H]3[C@H](C1)[C@H]1CC[C@@H]3O1)CC2 (stereo partly drawn)	27
CN1C(=O)CCC12CCC(NC(=O)CC1CCCC1)CC2 (stereo not drawn)	9
Cc1ccc(NC(=O)Cn2c(=O)cc(C(=O)N3CCOCC3)c3ccccc32)cc1F	4
Cc1ccc(C)c(OCCN(C)C(=O)CC2COCCN2)c1 (stereo not drawn)	2
C#CC1(NS(=O)(=O)c2ccc(C(=O)OCC)cc2)CCCCC1	19
Cc1ccc(NC(=O)c2c(O)c3ccccc3n(-c3ccccc3)c2=O)cc1C	64
COc1ccc(S(=O)(=O)N2CCn3cnc(COCC4CC4)c3C2)cc1	4
Cc1cccc(C)c1NC(=O)C(c1ccc(Cl)cc1Cl)N(C)C(=O)C(C)O (stereo not drawn)	-2
COc1ccc(C)cc1C(=O)NCC1CCN(Cc2cccnc2)C1 (stereo not drawn)	-44
Cc1noc(C)c1S(=O)(=O)N(C)C[C@H]1OCc2cnnn2CCCC(=O)N([C@@H](C)CO)C[C@H]1C	277
O=S(=O)(c1cccs1)N1CCC2(CC1)NCCN=C2NCc1ccccc1F	8
CCN1C[C@@H]2C3(CCN(C(=O)c4ccco4)CC3)CC[C@]2(C(=O)N2CCCC2)C1	-12
O=C(CCc1c[nH]c2ccccc12)NCc1cn[nH]c1-c1cccs1	-16
CC(=O)N[C@@H]1C[C@H](Cc2ccccc2)O[C@H](c2ccc(Cl)cc2)C1	-5
Cc1noc(C)c1NC(=O)N1C[C@@H](O)COC[C@H]2O[C@@H](CC(=O)N[C@@H]3CCN(Cc4ccccc4)C3)CC[C@@H]21	5
Cc1nn(C)c(C)c1CCC(=O)NCC1(c2ccc(F)cc2)CCOC1 (stereo not drawn)	2
CCn1c(C2CCCN(C(=O)C(=O)c3cccnc3)C2)nn(C)c1=O (stereo not drawn)	-5
O=C(c1ccccc1F)N1CCC2(CC1)Nc1ccccc1-n1cccc12	8

A stretch of the results above:
SMILES	Tg IFNy HTS
Cc1cccc(C)c1NC(=O)C(c1ccc(Cl)cc1Cl)N(C)C(=O)C(C)O (stereo not drawn)	-2
COc1ccc(C)cc1C(=O)NCC1CCN(Cc2cccnc2)C1 (stereo not drawn)	-44
Cc1noc(C)c1S(=O)(=O)N(C)C[C@H]1OCc2cnnn2CCCC(=O)N([C@@H](C)CO)C[C@H]1C	277
O=S(=O)(c1cccs1)N1CCC2(CC1)NCCN=C2NCc1ccccc1F	8
CCN1C[C@@H]2C3(CCN(C(=O)c4ccco4)CC3)CC[C@]2(C(=O)N2CCCC2)C1	-12

Only part of the results is shown; the hit share may differ from the screen's.
